Screening results: PubChem, Broad Institute
Hedgehog cleavage – Hh protein inhibition, biochemical readout – plate reader, single concentration, primary screen (AID 588832). Biochemical plate reader assay, Hedgehog inhibition; hits give high values. 8,000 tested, under 10 active. inhibition, % at 30.3 µM; in the data active = inhibition from about 57%; inconclusive = about 30 to 43% in a few cases; inactive = the rest, 99 in 100 below about 25%;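 also: 0% = neutral control wells and 100% = positive control wells; cholesterol-driven self-cleavage of fly hedgehog protein by fluorescence polarization; read one hour after cholesterol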
Active calls of the source: *; ? = inconclusive. A portion of the library; the hit share may differ from the screen's.

SMILES	Hedgehog cleavage
Cn1c(=O)[nH]c(=O)c2c1nc(N1CCN(c3ccccc3)CC1)n2CCSc1ncccn1	-2
O=C(CCC(=O)N1CCSc2ccccc21)NCc1cccc(Cl)c1	8
Cc1noc(/C=C/N(C)C)c1S(=O)(=O)N1CCCC(C(=O)NCCC2=CCCCC2)C1 (stereo unspecified)	7
CC(NC(=O)c1ccccc1)C(=O)OCC(=O)c1ccc(Br)cc1 (stereo unspecified)	5
CCN(CC)C(=O)Cc1ccccc1	11
CCN(CC)CCNC(=O)c1cc(S(=O)(=O)N2CCc3ccccc32)cn1C	7
CCN1CCN(C(=O)C2CC(c3ccc(F)cc3)=NO2)CC1 (stereo unspecified)	20
COc1ccc(NC(=O)C2=CC(c3ccco3)=NS(=O)(=O)N2C)cc1OC	15
CC(C)C[C@H](NC(=O)N1CC(=O)Nc2ccccc21)C(=O)N[C@H](Cc1c[nH]c2ccccc12)C(=O)O	-3
CN1C(C(=O)Nc2ccc(F)cc2F)=CC(c2cccs2)=NS1(=O)=O	4
CCSc1nnc(NC(=O)CSc2nnc(-c3c[nH]c4ccccc34)n2C)s1	-6
Cc1ccccc1C#N	5
CCc1ccc(NC(=O)CCC(=O)N2CCSc3ccccc32)cc1	12
CCCCCCCCCCCCCCCC(=O)OC/C=C(C)/C=C/C=C(C)/C=C/C1=C(C)CCCC1(C)C	9
COCCNC(=O)C(=O)NCC1OCCN1C(=O)c1ccc(Cl)cc1 (stereo unspecified)	0
CC(C)C[C@H](NC(=O)N1CC(=O)Nc2ccccc21)C(=O)N[C@H](C(=O)O)c1ccccc1	7
CCc1ccc(CN(C(=O)c2oc3ccccc3c2C)C2CCS(=O)(=O)C2)cc1 (stereo unspecified)	4
COc1cc(C(c2sc3ncnn3c2O)N2CCN(c3ccccc3F)CC2)cc(OC)c1OC (stereo unspecified)	-2
CC(=O)Nc1cccc(O)c1	4
Cc1ccc(CNC(=O)CS(=O)Cc2nc(-c3cccs3)oc2C)cc1 (stereo unspecified)	5
COC(=O)c1ccc(=O)c2nc3/c(=C/O)c(O)cc(=O)c3[nH]c12	23
COc1ccccc1-c1nnc(SCC(=O)N2CCOCC2)o1	15
CCc1ccccc1NS(=O)(=O)c1ccc2c(c1)C(C)(C)C(=O)N2C	11
CCOC(=O)COc1cccc2c(=O)n(CC(=O)N3CCC(C)CC3)ccc12	6
OCC1OC(n2cnc3c(NC4CCCCC4)ncnc32)C(O)C1O (stereo unspecified)	4
N#CCCN1CCN(S(=O)(=O)c2ccc(S(=O)(=O)N3CCCCCC3)cc2)CC1	8
COc1ccc(OC)c(C2CC(=O)N3CN(c4ccccc4F)CSC3=C2C#N)c1 (stereo unspecified)	0
O=C(Nc1ccccc1F)C1CCCN(S(=O)(=O)c2cccc3cccnc23)C1 (stereo unspecified)	11
CC(C)[C@H]1C(=O)Nc2ccccc2N1C(=O)N[C@@H](Cc1ccccc1)C(=O)N[C@@H](Cc1ccccc1)C(=O)O	9
CCOC(=O)c1oc2ccccc2c1CN1CCN(C(=O)c2ccccc2)CC1	4
COC(=O)c1cc(NC2c3ccccc3C(=O)N2Cc2ccco2)cc(C(=O)OC)c1 (stereo unspecified)	9
[C-]#[N+][C@H](O[C@@H]1O[C@H](CO)[C@@H](O)[C@H](O)[C@H]1O)c1ccccc1	2
CCCC(NC(=O)CCc1c(C)c2cc3c(C)c(C)oc3cc2oc1=O)C(=O)NC(Cc1ccc(Cl)cc1)C(=O)O (stereo unspecified)	5
COc1ccc(CN2CC34C=CC(O3)C(C(=O)O)C4C2=O)cc1 (stereo unspecified)	8
COc1cccc(C2CC(c3ccccc3OC)n3nc(N)nc3N2)c1 (stereo unspecified)	12
COc1cc(NC2c3ccccc3C(=O)N2Cc2ccc3c(c2)OCO3)cc(OC)c1OC (stereo unspecified)	7
O=C(C(Cc1ccccc1)n1cccc1)N1CCN(C2CCCCC2)CC1 (stereo unspecified)	5
CC(C)(O)CC[C@@H](O)[C@](C)(O)[C@H]1CC[C@@]2(O)C3=CC(=O)[C@@H]4C[C@@H](O)[C@@H](O)C[C@]4(C)C3CC[C@]12C (stereo partly specified)	9
O=C(O)CSc1cccc2cccnc12	4
O=C(COc1ccc(Cl)cc1)N(Cc1cccs1)C1CCS(=O)(=O)C1 (stereo unspecified)	5
CCOC(=O)c1ccc(NC(=O)C2CCN(S(=O)(=O)c3c(C)nn(C)c3C)CC2)cc1	5
CC(C)n1c(CCC(=O)O)ccc1-c1ccccc1	7
CCn1c(SCC(=O)Nc2cc(C)on2)nnc1-c1c[nH]c2ccccc12	3
CC(C)C[C@H](NC(=O)[C@H](Cc1ccccc1)n1c(=O)[nH]c2ccccc2c1=O)C(=O)N1CCC[C@H]1C(=O)O	2
Cn1cccc1Cc1nnc(SCC(=O)N2CCCc3ccccc32)n1-c1ccc(F)cc1	15
COC(=O)c1c(C)cc(O)c(C)c1O	3
c1ccc(Nc2nc3ccccc3n3nnnc23)cc1	2
O=C(O)CCC(=O)N1CCc2cc(S(=O)(=O)N3CCN(c4ccc(F)cc4)CC3)ccc21	2
COc1ccc(CCNC(=O)CN2CCOc3ccccc32)cc1OC	24
CCOC(=O)N1CCN(C(=O)c2ccc3nc4ccsc4c(=O)n3c2)CC1	10
COc1cc(O)c2c(=O)c3c(O)c(O)ccc3oc2c1OC	2
COc1nc(NC(C)(C)C)nc(Oc2ccc(=O)n(C)n2)n1	6
COc1ccc(C(=O)Nc2nncs2)cc1S(=O)(=O)N1CC(c2ccccc2)CC1=O (stereo unspecified)	20
CC(=O)N(O)CCCCCNC(=O)CCC(=O)N(O)CCCCCNC(=O)CCC(=O)N(O)CCCCCN	2
O=C(NCc1ccc(Cl)cc1)c1cccc2c1C(=O)N(CC1CCCO1)C2 (stereo unspecified)	4
Cc1ccc2c(c1)N(C(=O)CCC(=O)NCCCN1CCN(C)CC1)CCO2	5
COc1ccc(CNC(=O)COc2cc3c(c4oc(=O)cc(C)c24)CCC(C)(C)O3)c(OC)c1	5
CCCCCSc1nc2c(c(=O)[nH]c(=O)n2C)n1CC	5
O=C(Nc1ccc(S(=O)(=O)N2C[C@@H]3C[C@@H](C2)c2cccc(=O)n2C3)cc1)c1ccc(F)cc1	2
COc1cc(=O)n(C)c2c(O)cccc12	12

Part of the list above in another layout:
COc1cc(O)c2c(=O)c3c(O)c(O)ccc3oc2c1OC
- Hedgehog cleavage = 2

COc1nc(NC(C)(C)C)nc(Oc2ccc(=O)n(C)n2)n1
- Hedgehog cleavage = 6

Later entries.
SMILES	Hedgehog cleavage
CCOC(=O)N1CCN(C(=O)CSc2nnc(-c3ccc(C(C)(C)C)cc3)o2)CC1	15
COC(=O)C1(Cc2ccc(O)cc2)OC(=O)C(O)=C1c1ccc(O)cc1 (stereo unspecified)	10
COc1ccc(-c2cc(=O)oc3c(C)c(OCC(=O)NCCCn4ccnc4)ccc23)cc1	5
Cn1c(-c2ccc3c(c2)OCO3)cc(=O)c2ccccc21	2
CCc1cccc(NC2c3ccccc3C(=O)N2c2cccnc2)c1 (stereo unspecified)	5
COc1ccc(-c2csc(N3CCN(C(=O)c4ccco4)CC3)n2)cc1	6
CCOC(=O)N1CCN(C(=O)C(C)(C)Oc2ccc(Cl)cc2)CC1	23
C#CCn1c(=NC(=O)c2cccs2)sc2cccc(OC)c21	5
CC(C)C(NS(=O)(=O)c1ccc2c(c1)C(C)(C)C(=O)N2C)C(=O)NCc1ccc(F)cc1 (stereo unspecified)	4
COc1ccc(-n2c(SCC(=O)Nc3cc(C)on3)nc3c(c2=O)SCC3)cc1	2
CCOC(=O)N1CCN(C(=O)C2CCCN(Cc3nc(-c4ccc(Cl)cc4)oc3C)C2)CC1 (stereo unspecified)	15
CNc1ccccc1C(=O)OC	2
CC1CCCN(C(=O)CCS(=O)(=O)c2ccc3c(c2)n(C)c(=O)c(=O)n3C)C1 (stereo unspecified)	11
CC1Cc2nc(SCC(=O)NCc3ccco3)n(-c3ccccc3)c(=O)c2S1 (stereo unspecified)	3
O=C1c2ccccc2C(Nc2ccc(F)c(Cl)c2)N1c1ccccn1 (stereo unspecified)	3
CCCOc1ccc(N2CC(C(=O)Nc3ccccc3OC)CC2=O)cc1 (stereo unspecified)	9
O=S(=O)(c1cnc[nH]1)N1CCN(c2ccc(Cl)cc2)CC1	5
Cn1cc(S(=O)(=O)Nc2ccc(Br)cc2F)c(=O)n(C)c1=O	7
Cc1ccc(NC(=O)NCCN2C(=O)C3C4C=CC(C4)C3C2=O)cc1 (stereo unspecified)	21
Cc1oc(-c2cccc(Cl)c2)nc1CN1CCC(C(=O)NCCCN2CCCC2=O)CC1	2
COC(=O)c1ccccc1NC(=O)CCC(=O)N1CC(C)Oc2ccc(C)cc21 (stereo unspecified)	1
CCCN1Cc2cccc(C(=O)N3CCN(c4cc(Cl)ccc4C)CC3)c2C1=O	4
CSCC[C@H](NC(=O)Cc1c(C)c2cc3c(C)c(C)oc3cc2oc1=O)C(=O)N[C@@H](C(=O)O)c1ccccc1	2
O=C(COc1ccc2c3c(c(=O)oc2c1)CCCC3)N[C@@H](Cc1ccccc1)C(=O)O	3
COc1ccc(C)cc1NC(=O)c1cc(S(=O)(=O)N2CCCC2)cn1C	10
O=C(NCCC1=CCCCC1)C1CCCN(S(=O)(=O)c2cccnc2)C1 (stereo unspecified)	12
CC(C)(C)OC(=O)N1CCC(C(N)=O)CC1	6
Cc1ccc(C)n1-c1nnc(N2CCC(C(=O)NCCCN3CCN(C)CC3)CC2)s1	11
CCS(=O)(=O)Nc1cc(-c2nc3cccnc3s2)ccc1C	10
CCOC(=O)Cn1c(=O)n(Cc2ccco2)c(=O)c2ccc(C(=O)NC3CCCC3)cc21	-13
C=CCn1cc(C(=O)N2CCN(C)CC2)c(=O)c2cc(S(=O)(=O)N3CCCC3)ccc21	15
Cc1ccc(S(=O)(=O)N2CCN(C(=O)CSc3nnc(C)s3)C2)cc1	16
CCCCC(=O)O	7
Cc1nc(SCC(=O)NCc2ccc(F)cc2)c2c(=O)n(C)c(=O)n(C)c2n1	5
CC(=O)C1=C(O)CC(c2ccccc2)CC1=NCCc1c(C)[nH]c2ccccc12 (stereo unspecified)	7
COCCN1C(=O)c2oc3ccccc3c(=O)c2C1c1ccc(O)c(OC)c1 (stereo unspecified)	6
COc1ccc(C2C(C(N)=O)=C(C)Nc3nc(-c4ccccc4Cl)nn32)c(OC)c1 (stereo unspecified)	25
CC(NC(=O)c1ccccc1)C(c1cccs1)N1CCOCC1 (stereo unspecified)	10
Cc1ccc(OCCNC(=O)/C=C/c2ccco2)cc1C	21
Cc1cc2cc(CNS(=O)(=O)N(C)C)ccc2[nH]1	?
Cc1c(OCC(=O)N2C[C@H]3C[C@@H](C2)c2cccc(=O)n2C3)ccc2c3c(c(=O)oc12)CCCC3	4
Cc1cn(C)c(=O)n(C)c1=O	5
CCc1ccc(C2CC(c3ccccc3Cl)Nc3nc(N)nn32)cc1 (stereo unspecified)	23
Nc1nc(SCC(=O)N2CCCC2)[nH]c(=O)c1NC(=O)c1ccco1	2
CSc1ccc(C2NC(=O)c3c(sc4c3CCN(C)C4)N2)cc1 (stereo unspecified)	-3

Ordered by molecular weight (lowest first): some entries from above.
SMILES	Hedgehog cleavage
Cc1cn(C)c(=O)n(C)c1=O	5
Cc1cc2cc(CNS(=O)(=O)N(C)C)ccc2[nH]1	?
Cc1ccc(OCCNC(=O)/C=C/c2ccco2)cc1C	21
CC(NC(=O)c1ccccc1)C(c1cccs1)N1CCOCC1 (stereo unspecified)	10
CCS(=O)(=O)Nc1cc(-c2nc3cccnc3s2)ccc1C	10
CSc1ccc(C2NC(=O)c3c(sc4c3CCN(C)C4)N2)cc1 (stereo unspecified)	-3
CCc1ccc(C2CC(c3ccccc3Cl)Nc3nc(N)nn32)cc1 (stereo unspecified)	23
Nc1nc(SCC(=O)N2CCCC2)[nH]c(=O)c1NC(=O)c1ccco1	2
O=C(NCCC1=CCCCC1)C1CCCN(S(=O)(=O)c2cccnc2)C1 (stereo unspecified)	12
COCCN1C(=O)c2oc3ccccc3c(=O)c2C1c1ccc(O)c(OC)c1 (stereo unspecified)	6
CC(=O)C1=C(O)CC(c2ccccc2)CC1=NCCc1c(C)[nH]c2ccccc12 (stereo unspecified)	7
Cc1ccc(S(=O)(=O)N2CCN(C(=O)CSc3nnc(C)s3)C2)cc1	16
Cc1nc(SCC(=O)NCc2ccc(F)cc2)c2c(=O)n(C)c(=O)n(C)c2n1	5
COc1ccc(C2C(C(N)=O)=C(C)Nc3nc(-c4ccccc4Cl)nn32)c(OC)c1 (stereo unspecified)	25
CCOC(=O)Cn1c(=O)n(Cc2ccco2)c(=O)c2ccc(C(=O)NC3CCCC3)cc21	-13
C=CCn1cc(C(=O)N2CCN(C)CC2)c(=O)c2cc(S(=O)(=O)N3CCCC3)ccc21	15
Cc1ccc(C)n1-c1nnc(N2CCC(C(=O)NCCCN3CCN(C)CC3)CC2)s1	11

Next section:
SMILES	Hedgehog cleavage
COc1c(OC(C)=O)c(=O)n2c3ccccc3c3ccnc1c32	0
Cc1cc(C)cc(NC(=O)CSc2nc(N)c(NC(=O)c3cccs3)c(=O)[nH]2)c1	9
Cc1ccc(-c2nc(SCC(=O)NCC3CCCO3)c(-c3ccc(Cl)cc3)[nH]2)cc1 (stereo unspecified)	6
O=C(NCCCn1ccnc1)C(=O)NCC(c1cccnc1)N1CCN(c2ccccc2)CC1 (stereo unspecified)	17
COc1ccccc1CNC(=O)CCC(=O)N1CCOc2ccc(Cl)cc21	2
NC(=O)c1ccccc1N	9
O=c1[nH]cnc2c1ccn2C1OC(CO)C(O)C1O (stereo unspecified)	5
O=C(CSc1nc2c(cnn2-c2ccccc2)c(=O)[nH]1)N1N=C(c2cccs2)CC1c1ccc(F)cc1 (stereo unspecified)	0
O=C(NCCN1C(=O)C2C3C=CC(C3)C2C1=O)Nc1cccnc1 (stereo unspecified)	4
COc1ccc(-n2c(Cc3cccn3C)nnc2SCC(=O)Nc2cccc(Cl)c2)cc1	29
Cc1ccc(CNC(=O)CCC(=O)n2ncc3cc(C)ccc32)cc1	0
